Source: PubChem BioAssay (Johns Hopkins Ion Channel Center)
KCNQ2 inh – KCNQ2 channel blockers in CHO-K1 cells – cell-based, FluxOR thallium flux, B-score, primary screen (AID 2156); 20 min; stronger effect = lower value; only compounds with negative scores are shown here; some inactives read as strong as hits; hit rate 1.1% among 310,000; B-score at 10 µM; O88943;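 active means fluorescence ratio B-score at most minus 3 library SDs, with starting brightness B-score within 2 library SDs, cut at about -5.5 in these data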
Target sequence (O88943 whole entry, looked up): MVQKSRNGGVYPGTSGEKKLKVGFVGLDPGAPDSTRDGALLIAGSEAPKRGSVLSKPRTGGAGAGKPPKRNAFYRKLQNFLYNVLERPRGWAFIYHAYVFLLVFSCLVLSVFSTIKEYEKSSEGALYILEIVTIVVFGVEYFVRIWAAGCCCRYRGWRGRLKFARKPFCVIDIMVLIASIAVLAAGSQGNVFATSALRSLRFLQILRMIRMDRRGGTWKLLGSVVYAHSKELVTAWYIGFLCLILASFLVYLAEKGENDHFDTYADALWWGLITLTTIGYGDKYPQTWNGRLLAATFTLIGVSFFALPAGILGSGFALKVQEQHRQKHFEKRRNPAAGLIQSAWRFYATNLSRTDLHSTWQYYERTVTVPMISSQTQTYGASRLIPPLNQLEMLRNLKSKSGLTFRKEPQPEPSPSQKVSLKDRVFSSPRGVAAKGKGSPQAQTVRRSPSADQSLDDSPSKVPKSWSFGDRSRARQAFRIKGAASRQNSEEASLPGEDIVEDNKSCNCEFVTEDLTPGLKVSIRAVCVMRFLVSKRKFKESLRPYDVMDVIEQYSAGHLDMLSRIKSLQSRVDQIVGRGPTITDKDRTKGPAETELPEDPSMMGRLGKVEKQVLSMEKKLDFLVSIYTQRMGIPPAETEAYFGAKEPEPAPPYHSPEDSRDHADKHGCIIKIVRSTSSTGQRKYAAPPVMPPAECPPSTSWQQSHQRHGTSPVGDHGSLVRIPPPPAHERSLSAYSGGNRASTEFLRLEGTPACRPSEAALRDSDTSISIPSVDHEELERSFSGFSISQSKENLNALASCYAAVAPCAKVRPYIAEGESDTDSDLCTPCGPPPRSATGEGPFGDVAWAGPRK
KCNQ2 inh baseline – also measured in KCNQ2 inh; calls as there; B-score; measured here: initial fluorescence intensity artifact check;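 brightness before thallium and not channel activity; 0 = typical well and far values either way flag optical interference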
* = called active by the depositor; i = inactive. The list is partial; count on the stated rates, not on these rows.

SMILES	KCNQ2 inh	KCNQ2 inh baseline
Cc1ccc(NC(=O)C2(c3ccccc3)CCOCC2)cc1	i	-0.11
Cc1ccc(OCC(=O)N/N=C/c2c[nH]c3ccccc23)c([N+](=O)[O-])c1	i	1
CCOC(=O)C1=C(C)NC2=C(C(=O)CCC2)C1c1cc(OC)ccc1OC (configuration not stated)	i	-0.35
O=C(COC(=O)c1c(Cl)cccc1Cl)NC1CCCCC1	i	1.7
Cc1ccc(NC(=O)CSc2nn(-c3ccc(Cl)cc3)c(=S)s2)cc1S(=O)(=O)N(C)C	-7.1*	0.58*
CCN1CCc2c(OCC(=O)Nc3cccc(C)c3)cccc2C1=O	i	-0.39
Cc1cc(=O)oc2c(C)c(OCC(=O)NCC3CCC(C(=O)O)CC3)ccc12 (configuration not stated)	i	0.28
CC(=O)c1cccc(N(CC(=O)Nc2ccc(F)cc2)S(C)(=O)=O)c1	i	0.84
CCC(CC)=N/N=C/c1c(O)n(CC)c2cc(C3=NNC(=O)CC3)ccc12	i	0.18
OC(COc1ccccc1)CN1CCCCCC1 (configuration not stated)	i	2.5
COc1ccc(-c2noc(CN(C)C(=O)CCN3C(=O)[C@H]4CC=CC[C@H]4C3=O)n2)cc1	i	-3.7
Cc1ccc(-c2csc(NC(=O)CCNC(=O)c3ccccc3Cl)n2)cc1	i	-0.19
COc1ccccc1C(=O)N/C(=C\c1ccc(Br)cc1)C(=O)NCCO	i	1.5
Cc1nc2ccccc2n2c(-c3ccccc3)c3c(=O)n(C)c(=O)n(C)c3c12	i	-0.16
CCOC(=O)C1(CCc2ccccc2)CCN(C(=O)C2CCOCC2)CC1	i	0.48
CCOC(=O)Cn1ccc(O)c(Cc2ccc(Cl)cc2Cl)c1=O	i	0.26
O=C(Cc1ccc(F)cc1)N(c1ccc(F)cc1)C1C=CS(=O)(=O)C1 (configuration not stated)	i	2.9
Cc1ccc(C)c(C(=O)c2c(C)nc3sccn23)c1	i	-0.05
COc1ccc(S(=O)(=O)N[C@@H](C)C(=O)OCC(=O)Nc2cc3oc4ccccc4c3cc2OC)cc1	i	-1.6
O=C(CCCCCCC(=O)Nc1ccccc1)NO	i	0.24
COc1ccc(Cl)cc1NC(=O)CSc1nncn1-c1cccnc1	i	-0.88
O=C(c1ccco1)N1CCN(S(=O)(=O)c2cccc(C(F)(F)F)c2)CC1	i	-2.4
CSc1nc2n(n1)C(C)C1=C(CCCC1=O)N2 (configuration not stated)	i	-0.5
Cc1cccc(-n2c(C)nc3sccc3c2=O)c1	i	3.4
CCOC(=O)C1CN(S(=O)(=O)c2ccc(OC)cc2)c2cc(Cl)ccc2O1 (configuration not stated)	i	-0.95

In a second layout: entries from further up
| KCNQ2 inh | KCNQ2 inh baseline | Molecule |
| --- | --- | --- |
| i | 2.5 | OC(COc1ccccc1)CN1CCCCCC1 (configuration not stated) |
| i | -3.7 | COc1ccc(-c2noc(CN(C)C(=O)CCN3C(=O)[C@H]4CC=CC[C@H]4C3=O)n2)cc1 |
| i | -0.19 | Cc1ccc(-c2csc(NC(=O)CCNC(=O)c3ccccc3Cl)n2)cc1 |
| i | 1.5 | COc1ccccc1C(=O)N/C(=C\c1ccc(Br)cc1)C(=O)NCCO |

The main list resumes, repeating the 6 entries before the break.
SMILES	KCNQ2 inh	KCNQ2 inh baseline
O=C(CCCCCCC(=O)Nc1ccccc1)NO	i	0.24
COc1ccc(Cl)cc1NC(=O)CSc1nncn1-c1cccnc1	i	-0.88
O=C(c1ccco1)N1CCN(S(=O)(=O)c2cccc(C(F)(F)F)c2)CC1	i	-2.4
CSc1nc2n(n1)C(C)C1=C(CCCC1=O)N2 (configuration not stated)	i	-0.5
Cc1cccc(-n2c(C)nc3sccc3c2=O)c1	i	3.4
CCOC(=O)C1CN(S(=O)(=O)c2ccc(OC)cc2)c2cc(Cl)ccc2O1 (configuration not stated)	i	-0.95
O=S(=O)(c1ccccc1)N(CC(O)Cn1c2ccccc2c2ccccc21)c1ccccc1 (configuration not stated)	-9.6*	3.6*
C=CCNC(=O)/C(C#N)=C/c1ccc(C)o1	i	0.55
C[C@H](NC(=O)c1nc[nH]c1C(=O)NCCCCCNC(=O)OC(C)(C)C)C(=O)OC(C)(C)C	i	1.2
COc1cc([C@@H]2c3cc4c(cc3[C@@H](NC3CCN(Cc5ccccc5)CC3)[C@H]3COC(=O)[C@H]23)OCO4)cc(OC)c1O	i	-0.34
CC1CCN(S(=O)(=O)c2cccc(C(=O)Nc3ccccc3)c2)CC1	i	0.76
Cc1ccc(Oc2c(F)c(F)nc(N3CCCC3)c2F)cc1	i	0.73
Cc1cc2nc3c(nc2cc1C)C(O)=C3O	i	2.6
Cc1ccc(C2(CCNCc3ccco3)CCOC(C(C)C)C2)cc1 (configuration not stated)	i	0.64
CC(C)C(=O)Nc1nnc(CCc2ccccc2)s1	i	-0.56
Cc1c(N=C/C=C2\N(C)c3ccccc3C2(C)C)c(=O)n(-c2ccccc2)n1C	i	0.06
O=c1cc(CSc2nnnn2-c2ccc(O)cc2)nc2sccn12	i	-0.56
COCCNC(=O)C1CCN(S(=O)(=O)c2ccccc2)CC1	i	0.9
c1ccc2oc(-c3[nH]ncc3CN3CCSCC3)cc2c1	i	2.2
O=C(CN1C2CCCC1CC(NC(=O)c1ccco1)C2)Nc1ccccc1 (configuration not stated)	i	0.35
O=C(NCc1ccccc1)C1(c2cccc(F)c2)CCCC1	i	0.16
Cc1cc(C)c2cc(C#N)c(N3CCCN(C(=O)c4cnccn4)CC3)nc2c1	i	0.26
Cc1cc(C(=O)N2CCCC(C(=O)c3ccc4ccccc4c3)C2)n(C)n1 (configuration not stated)	i	-2.9
CN(C)c1ccc(N=Cc2nc(-c3ccccc3)oc2OC(=O)c2cccc(Cl)c2)cc1	i	14
Cc1ccc(O)c(NC(=O)c2ccccc2-c2ccccc2C(=O)O)c1	i	1.2
Cc1ccc2ncc(S(=O)(=O)c3ccccc3)c(N3CCCCC3C)c2c1 (configuration not stated)	-6.1*	-1.8*
COc1ccc(C(=O)N2CCN(c3ccc([N+](=O)[O-])c(NCCc4ccc(OC)c(OC)c4)c3)CC2)cc1	i	0.26
O=C1CCC(C(=O)Nc2cccc(S(=O)(=O)N3CCOCC3)c2)N1 (configuration not stated)	i	-0.53
C#CCn1cc(/C=N/NC(=O)c2cc3ccccc3o2)c2ccccc21	i	1.8
Cn1cc(Cl)c(C(=O)NNC(=S)Nc2cccc(Cl)c2)n1	i	-0.83
CCN1CCN(c2nc(N)c([N+](=O)[O-])c(Nc3cccc(C)c3)n2)CC1	i	2.9
The listing continues:
SMILES	KCNQ2 inh	KCNQ2 inh baseline
COc1cc([N+](=O)[O-])cc(/C=N/NC(=O)C(O)(c2ccccc2)c2ccccc2)c1O	i	2.9
CC(=O)CCc1oc2ccc([N+](=O)[O-])cc2c1-c1ccc(C)o1	i	0.68
CN1CCN(C2CC(=O)N(Cc3ccc(N4CCCC4=O)cc3)C2=O)CC1 (configuration not stated)	i	-1.2
Cc1ccc(O)c(C2=Nc3ccccc3N=C(c3ccco3)C2)c1	i	1.6
CN(C)c1nc(SCc2ccccc2Cl)nc2c1CCCC2	i	0.14
COc1ccc(Cl)cc1NC(=O)COC(=O)c1cc(NS(=O)(=O)c2cccs2)ccc1O	i	-0.08
CC(C)OC(=O)C1C(=O)CC(C)(O)C(C(=O)OC(C)C)C1c1cccnc1 (configuration not stated)	i	1.4
CCCN(Cc1cc2cc(OC)ccc2[nH]c1=O)C(=O)c1ccncc1	i	0.74
O=C(Nc1cn(-c2ccccc2)nc1-c1ccccc1)c1ccccc1	i	0.44
Cc1nc2c(-c3ccc(F)cc3)c(C)nn2c(N2CCOCC2)c1C	i	2.3
CN(C)CCCN(C(=O)COc1ccccc1)c1nc2ccc(Cl)cc2s1	i	0.28
O=S1(=O)N=C(N(CCO)/N=C/C=C/c2ccccc2)c2ccccc21	i	0.06
Cc1nn(CC(=O)NC(=O)NC2CCCC(C)C2C)c(=O)c(C#N)c1C (configuration not stated)	i	1.2
CCc1ccc2nc(N(CCCN(C)C)C(=O)c3ccc(S(=O)(=O)N(C)C4CCCCC4)cc3)sc2c1	i	2.7
N#CC1=C(N)NC(SCC(=O)c2ccc(Br)cc2)=C(C#N)C12CCCCC2	-6.6*	-0.29*
Cc1c(C(=O)N2CCN(c3ccc(F)cc3)CC2)sc2nc3n(c(=O)c12)CCC3	i	-1.3
O=C(N/N=C/c1ccccn1)c1ccco1	i	-1.2
COc1cccc(N2CCN(C(=O)C3C4C=CC5(CN(Cc6ccccc6Cl)C(=O)C35)O4)CC2)c1 (configuration not stated)	i	2.2
CCOC(=O)C1(Cc2ccccc2C)CCCN(S(C)(=O)=O)C1 (configuration not stated)	i	0.79
O=C(N/C(=C\c1ccc([N+](=O)[O-])cc1)C(=O)N1CCCCC1)c1ccccc1	i	-0.42
O=C(C1CCCN(S(=O)(=O)c2cnc[nH]2)C1)N1CCN(c2ccc(Cl)cc2)CC1 (configuration not stated)	i	-0.35
Cc1ccc(NCc2ccc([N+](=O)[O-])s2)cc1	i	-0.14
Cc1nc(N2CCCCC2)c2sc(=S)n(C)c2n1	i	-0.12
Cn1c(SCC(=O)c2ccccc2)nnc1C1COc2ccccc2O1 (configuration not stated)	i	-0.11
COc1cccc(/C(O)=C2/C(=O)C(=O)N(CCCN3CCOCC3)C2c2ccncc2)c1 (configuration not stated)	i	2.6
Further results follow.
SMILES	KCNQ2 inh	KCNQ2 inh baseline
CCOc1ccc(N(CC(=O)N2CCCC2)S(=O)(=O)c2c(C)noc2C)cc1	i	1.6
Cc1nn(Cc2c(Cl)cccc2Cl)c(C)c1NC(=O)c1sc2ccccc2c1Cl	i	-0.43
CCc1ccc(-c2nn(-c3ccccc3)cc2CSC(=N)N)cc1	-12*	1.1*
CN(C)CCCNc1cn[nH]c(=O)c1Cl	i	-0.69
Oc1ccc(/C=N/Nc2ccc(C(F)(F)F)cn2)cc1O	i	0.66
COc1ccc(-c2csc(N(C)C(=O)c3cccs3)n2)cc1	i	-0.07
CC(NC(=O)c1c(O)c2ccccc2[nH]c1=O)c1ccccc1 (configuration not stated)	i	-0.45
Cc1nnc(SCc2cccc3ccccc23)n(N)c1=O	i	1.3
Cc1cccc(Oc2ccccc2N)c1	i	-0.43
COc1ccc(C2=NNC(c3ccco3)=Nc3ccc(F)cc32)cc1	i	1.8
COc1cccc(CNC(=O)c2ccccc2C(=O)NC(C)(C)C(=O)NCc2cccc(OC)c2)c1	i	-1.4
CCc1cc2c(nc1CC)CCN(CC/C(C)=N/OC[C@H]1O[C@H](c3ccccc3)C=C[C@@H]1Oc1ccc(OC)cc1)C2	i	-0.81
COC(=O)c1cc(C#N)c(SCc2ccccc2)nc1C	i	-0.12
Cc1ccc2nc(N(CCCN(C)C)C(=O)c3ccc4c(c3)CCCC4)sc2c1	i	0.03
COc1cc(NC(=O)CCN2CCN(Cc3ccccc3)CC2)cc(OC)c1	i	-1.1
COc1ccc(NC(=O)Cn2c(=O)n(CC3CCCO3)c(=O)c3ccccc32)c(OC)c1 (configuration not stated)	i	0.68
Cc1ccc(Sc2ncccc2C(=O)NCC(c2ccc(F)cc2)N2CCOCC2)c(C)c1 (configuration not stated)	i	-0.06
COc1cccc(-c2cc(=O)c3cc(NC(=O)c4ccc(Cl)cc4)ccc3[nH]2)c1	i	0.84
O=C(C1=C[C@H](c2ccc(C(F)(F)F)cc2)C[C@H](OCc2ccc(CO)cc2)O1)N1CCCCCCC1	i	0.47
CC(C)(C)NC(=S)N/N=C\c1ccc(-c2ccc([N+](=O)[O-])cc2)o1	i	2.1
COc1ccc(NC(=O)c2ccc(COc3ccc(C)cc3)o2)cc1	i	0.76
COc1ccc(C=Nc2cccc3c(=O)[nH][nH]c(=O)c23)c2ccccc12	i	-0.35
CCOC(=O)Cc1c(Sc2ccccc2)c2cc(C)ccc2n1C	i	-1.3
Cc1nnc(SCC(=O)Nc2cccc(C(F)(F)F)c2)n1Cc1ccco1	i	0.56
Cn1c(CNC(=O)c2ccco2)nnc1SCC(=O)Nc1cccc(F)c1	i	0.53
Continued.
SMILES	KCNQ2 inh	KCNQ2 inh baseline
Clc1nc(-c2ccccc2)ncc1Oc1ccccc1	i	0.71
O=C(COc1ccc(Cl)cc1)Nc1ccccc1N1CCOCC1	i	-0.33
CN(C)C(=O)COC(=O)c1ccccc1OCC(=O)Nc1ccc(SC(F)F)cc1	i	1.9
O=C(CSc1nnc(-c2cccnc2)n1Cc1ccco1)NCc1ccc2c(c1)OCO2	i	1.4
CCN1CCN(C(=O)c2oc(=O)c3ccccc3c2-c2ccc(C)cc2)CC1	i	0.04
O=C(Cn1nnc2ccccc21)OCC(=O)c1ccc(Cl)c(Cl)c1	i	0.7
O=C(Nc1cc(C(F)(F)F)ccc1-n1cnc2ccccc21)c1ccccc1	i	1.2
Cc1cc(S(=O)(=O)N2CCOCC2)ccc1OCC(=O)N1CCC(C)CC1	i	-0.89
CC1CCc2cc(F)ccc2N1C(=O)CSc1nnc(-c2cccs2)n1C (configuration not stated)	i	-2.6
CC(=O)Nc1ccc(OC(=O)c2cc3ccccc3oc2=O)cc1	i	-0.51
Clc1cccc(OCCn2ccnc2)c1	i	1.7
Cc1ccc2nc(/C(C#N)=C\c3ccc(Oc4ccc(C(F)(F)F)cc4[N+](=O)[O-])cc3)[nH]c2c1	i	-0.06
CC(C)NC(=O)c1ccccc1NC(=O)Cc1ccc([N+](=O)[O-])cc1	i	-0.77
COc1ccc(NC2CCCN(C(=O)CCN3CCOCC3)C2)cc1 (configuration not stated)	i	0.08
CSc1nc(Oc2ccc(F)cc2F)cc(C(F)(F)F)n1	i	1.9
COc1ccccc1NC(=O)N(Cc1ccco1)Cc1cc2cccc(C)c2[nH]c1=O	i	0.55
